RanGTP-Imp inh – inhibitors of RanGTP-importin-beta interaction, primary screen, biochemical, FRET, CFP-Ran, YFP-importin-beta, homogeneous | Ran GTPase (GTP-bound) - importin-beta complex | cell-free CFP-Ran/YFP-importin-beta FRET ratio | inhibition, % (concentration not given with the values) | hit rate 1.1% among 300,000;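 active means most replicates above 15%; inconclusive means exactly half above 15%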;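 further: 0% = DMSO wells and 100% = Ran loaded with GDP instead of GTP; wells of about 40 µL received 100 nL stock; the first replicate is given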
Beta2AR agonist – beta2AR agonists driving receptor internalization, primary screen, cell-based, FAP fluorogen, flow cytometry; Beta-2 adrenergic receptor (Homo sapiens), P07550; Am2.2-beta2AR cells; reference of the scale not given here; response, % (concentration not given with the values); hit rate 0.43% among 340,000;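 active means response above a set limit, near 3 SD of response in nonfluorescent compounds, cut at about 42% in these data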;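 further: stock transfer was 100 nL into about 11 µL; a reference agonist was the positive control; negative values mostly stem from fluorescent compounds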
Target sequence (P07550 whole entry, looked up): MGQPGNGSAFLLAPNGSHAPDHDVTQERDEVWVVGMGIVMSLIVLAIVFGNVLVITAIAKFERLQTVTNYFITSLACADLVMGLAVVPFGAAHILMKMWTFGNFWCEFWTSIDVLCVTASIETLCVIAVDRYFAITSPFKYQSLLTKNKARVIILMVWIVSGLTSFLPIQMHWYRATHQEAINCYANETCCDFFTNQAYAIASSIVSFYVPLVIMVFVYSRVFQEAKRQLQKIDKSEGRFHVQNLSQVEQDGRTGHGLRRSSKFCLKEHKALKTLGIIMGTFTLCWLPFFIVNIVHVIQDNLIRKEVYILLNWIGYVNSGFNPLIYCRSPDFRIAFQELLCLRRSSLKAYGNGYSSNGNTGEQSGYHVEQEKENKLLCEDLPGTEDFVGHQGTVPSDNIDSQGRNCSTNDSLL
HNF4A DNA FP – change in binding of human HNF4A to DNA, primary screen, biochemical, fluorescence polarization, FITC-DNA. hit rate 0.3% among 360,000. 1 h. Hepatocyte nuclear factor 4-alpha (Homo sapiens), P41235. activity change, % at 10 µM; in the data active means activity change above about 30%, passing the limit was not always enough;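 further: controls were the assay level and a saturating level of protein; the project sought stronger binding though the title names inhibitors; some compounds called inactive have numbers as strong as hits; positive values seem to mean higher polarization but the record does not say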
Vif A3G – inhibitors of Vif binding to APOBEC3G peptide, primary screen, biochemical, TR-FRET, GST-Vif 1-94, biotin-A3G peptide, dose response retest (AID 1117319) | TR-FRET GST-Vif / biotin-A3G peptide binding; higher % means a stronger effect; test concentration not given here; strong numbers were not always called active | one-dose inhibition, %; IC50 in µM for titrated hits | hit rate 0.57% among 260,000;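 active means above the screen mean plus three standard deviations and confirmed in dose response; inconclusive means results disagree or hit not tested in dose response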;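 further: Vif residues 1-94 fused to GST binding biotinylated APOBEC3G peptide 110-148; 0% = full assay without inhibitor and 100% = GST in place of GST-Vif; retest series ran down from 100 µM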
LANA-H2A inh – blockers of LANA interaction with H2A/H2B – biochemical, FP readout, HTS, primary screen. cell-free LANA-H2A/H2B peptide, fluorescence polarization. inhibition, % (concentration not given with the values). hit rate 0.6% among 320,000; in the data active means inhibition mostly above about 10%, no sharp cut-off; inactive means mostly below about 6.7%;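 further: stock transfer was 7.5 nL into about 10 µL; 0% = median of vehicle wells and 100% = median of positive control wells; one replicate is shown; the record names a cut of 25% in any replicate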
Calb FLC – C. albicans growth inhibition with fluconazole, primary screen, CaCi-2 strain, Alamar Blue fluorescence | C. albicans CaCi-2 (fluconazole-resistant clinical isolate) + fluconazole, 48 h | growth inhibition, % (no concentration beside the values) | hit rate 0.57% among 300,000 | AID 1979, 2009;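 active means most replicates above 75%; inconclusive means exactly half above 75%; inactive means most below 75%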;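 further: all wells also contain fluconazole at 8 µg/ml as a sub-toxic cotreatment; 0% = median of DMSO wells and 100% = median of geldanamycin control wells; wells of about 8 µL received 7.5 nL stock; the first replicate is given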
ALR inh – inhibitors of human ALR sulfhydryl oxidase, primary screen, biochemical, H2O2 detection, HRP-luminol luminescence, single point | FAD-linked sulfhydryl oxidase ALR (Homo sapiens), P55789 | purified ALR, DTT oxidation | inhibition, % (test concentration not listed) | hit rate 3.8% among 290,000 | AID 485317, 2010;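 active means mean and each replicate at 75% or more; inconclusive means only one of the two met; inactive means neither met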;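 further: stock transfer was 7.5 nL into about 7.5 µL; 0% = neutral wells and 100% = wells with inactivated enzyme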
Target sequence (P55789 whole entry, looked up): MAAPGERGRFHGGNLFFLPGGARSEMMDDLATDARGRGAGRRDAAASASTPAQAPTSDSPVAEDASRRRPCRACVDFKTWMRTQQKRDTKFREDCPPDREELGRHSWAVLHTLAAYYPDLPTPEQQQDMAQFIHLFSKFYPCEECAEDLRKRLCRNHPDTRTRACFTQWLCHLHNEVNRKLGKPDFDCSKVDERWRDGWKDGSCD
* marks the source's active call; other numbers are inactive results; u = inconclusive; x = not tested or not shown. Outcome played no part in choosing rows (roughly 6.3% active in at least one column).

SMILES	RanGTP-Imp inh	Beta2AR agonist	HNF4A DNA FP	Vif A3G	LANA-H2A inh	Calb FLC	ALR inh
Cc1noc(NS(=O)(=O)c2ccc(NC(=O)/C=C/c3ccc(Br)cc3)cc2)c1C	x	0	11	4%	-1.7	-12	91*
CC(=O)c1c(C)nc2ccc(C)cc2c1-c1ccccc1	1.2	-1	0.1	-3%	2.6	11	26
Cc1noc(C)c1CSc1nnc(-c2ccncc2)n1-c1cccc(Cl)c1C	-0.2	-2	-0.9	31%	-0.4	4	2
COc1ccc(S(=O)(=O)Nc2ccccc2C(=O)N2CCOCC2)cc1Cl	-2.6	3	3.7	-1%	1.1	5	-5
Cc1ccc(C(=O)Nc2ccc3c(c2)OCCO3)cc1S(=O)(=O)N1CCOCC1	x	12	-0.7	-6%	-2.3	x	-7
Cc1cccc(C)c1NC(=O)c1cnn(-c2ccccc2)c1C	0.9	4	1.7	x	-0.1	3	-9
CN1OC[C@@H]2CN[C@H](c3cccc(-c4cc(Cl)cc(Cl)c4)c3)C[C@@H]21	x	8	-2.6	-1%	x	x	x
COc1ccccc1N1CCN(C(c2ccccc2)c2nnnn2CCc2ccccc2)CC1 (centres undefined)	-2.5	7	0.5	u	-3.7	-9	-7
COc1cc(/C=C/C(=O)c2ccc(O)cc2)ccc1OCC#N	u	13	0.5	25%	0.4	2	60
O=C(Nc1ccc(C(=O)NCc2ccccc2)cc1)C1=CSCCO1	2.2	-3	0.7	x	-2.1	0	-1
Cc1cccc(C(C)C)c1-n1nnnc1-c1ccccc1	2.4	10	0.6	9%	-5.3	u	-4
CN(C)c1nc(OCCNC(=O)Nc2ccccc2)nc(N(C)C)n1	-5.1	0	-1.3	-3%	-2.4	u	60
COc1ccccc1CNC(=O)C1CCC(CNS(=O)(=O)c2cccs2)CC1 (centres undefined)	0.0	-10	0.5	x	3.9	1	-12
COC(=O)c1sccc1NC(=O)CN(C)NS(=O)(=O)c1ccc(F)cc1	4.7	7	3.3	-7%	4.6	21	30
O=C(COC(=O)C12CC3CC(CC(C3)C1)C2)Nc1ccc2[nH]c(=O)[nH]c2c1	2.8	2	-0.3	-3%	1.9	3	0
O=C(Nc1ccc2nc(C3CC3)n(Cc3ccc(F)cc3)c(=O)c2c1)c1ccco1	4.0	19	5.5	0%	-1.6	7	24
CC(C)CC(=O)Nc1nc2ccc(S(=O)(=O)N3CCOCC3)cc2s1	0.3	12	-1.6	-5%	1.5	-4	-8
C#CCOCCOCCOCCNc1nc(N2CCN(C(=O)[C@H](CCCCN)n3cc([C@@H](N)CC(C)C)nn3)CC2)nc(N2CCN(C(=O)[C@H](Cc3cc4ccccc4[nH]3)n3cc([C@@H](N)Cc4ccc(O)cc4)nn3)CC2)n1	0.8	-6	17	x	2.3	6	x
O=C(CCC(=O)NC1CCCCCC1)Nc1nnc(C(F)(F)F)s1	2.3	-3	0.0	-1%	-9.0	-12	-2
COc1ccc(C)cc1NC(=O)c1ccccc1NS(=O)(=O)c1ccc(Cl)s1	-2.2	20	1.1	19%	-1.3	31	3
CCNC(=O)/N=C1/NC(=O)C(C(C)C)O1 (centres undefined)	2.0	-3	1.1	-7%	3.3	10	3
O=C(N/N=C/c1ccccn1)c1cccc(NC(=O)c2ccccc2Cl)c1	-1.5	-5	-1.4	x	-2.4	0	-1
O=C(CC1SCCNC1=O)Nc1ccccc1Cl (centres undefined)	-0.9	-2	2.0	-5%	-0.8	11	-53
CSC1=NS(=O)(=O)c2c(C)nn(C)c2S1	0.7	-1	4.0	-57%	-3.2	1	72
Cc1ccc(COC(=O)c2cc(S(=O)(=O)N3CCOCC3)ccc2C)cc1	x	0	2.4	4%	4.1	x	-5

A few values from the entries so far:
Entry of O=C(N/N=C/c1ccccn1)c1cccc(NC(=O)c2ccccc2Cl)c1 in ALR inh: -1
Entry of CC(C)CC(=O)Nc1nc2ccc(S(=O)(=O)N3CCOCC3)cc2s1 in Vif A3G: -5%

Next entries follow:
SMILES	RanGTP-Imp inh	Beta2AR agonist	HNF4A DNA FP	Vif A3G	LANA-H2A inh	Calb FLC	ALR inh
Nc1nnn(Cc2ccccc2)n1	4.3	-4	0.4	18%	-1.4	-22	-1
COc1ccc(CCNC(=O)C2CCN(C(=O)c3ccc(Cl)cc3)CC2)cc1OC	-0.6	-6	-2.1	x	1.0	24	-5
O=C(CSC1c2ccccc2C(=O)N1c1ccccc1)N1CCOCC1 (centres undefined)	-3.6	-2	-0.2	6%	-0.3	-38	-11
O=C(CCS(=O)(=O)c1cccs1)Nc1ccc(C(=O)NCc2ccc(F)cc2)cc1	2.7	-4	0.5	-10%	1.2	-13	0
Cc1ccccc1OCC(=O)Nc1cccc(S(=O)(=O)NC2=NCCCCC2)c1	-2.5	-7	0.0	1%	-1.4	-10	5
CCCCCNC(=O)c1cc(S(=O)(=O)N2CCCCC2)ccc1F	-1.3	3	0.9	23%	-9.3	0	-4
CCOc1ccc(NC(=O)CN(C)C(=O)C2CC(=O)N(c3ccc4c(c3)OCCO4)C2)cc1OCC (centres undefined)	-1.6	1	4.6	-2%	-6.7	10	5
C=C1c2cc(CC)ccc2NC(=O)N1c1ccc(C)cc1	3.7	-9	-1.1	0%	-2.1	-4	96*
COc1ccc(C2CC(c3ccccc3)=NN2C(=O)CN2N=NC3C(=O)N(c4cccc(F)c4)C(=O)C32)cc1 (centres undefined)	1.2	-7	0.9	x	0.5	7	-2
NC(N)=NN=C1CCC(c2ccccc2)CC1 (centres undefined)	-0.6	-2	-6.5	-17%	-0.6	1	4
NS(=O)(=O)c1ccc(NCCCn2ccnc2)c([N+](=O)[O-])c1	-0.6	-3	7.6	3%	-2.1	-10	0
COC(=O)c1[nH]c2cc(OC)ccc2c1NC(=O)c1nonc1C	u	-3	-0.3	26%	5.1	-11	-7
CC(Sc1cnc2ccccc2n1)C(=O)O (centres undefined)	u	-1	5.1	-9%	1.6	-2	48
NC(=O)CSc1oc(-c2ccco2)nc1S(=O)(=O)c1ccc(F)cc1	-1.0	-3	3.5	x	-0.6	-1	-2
O=C(NCc1ccncc1)c1ccc(Br)cc1	2.1	0	1.0	-1%	-3.0	u	-8
CC(C)NC(=O)NC(=O)COC(=O)Cc1ccsc1	2.1	-8	-4.0	u	8.0	1	-2
Cc1ccc(C)c(Oc2nnnn2-c2ccccc2)c1	-0.6	17	-5.9	6%	0.9	-14	x
CC(C(=O)NCc1ccco1)c1ccc([N+](=O)[O-])cc1 (centres undefined)	0.3	4	2.9	-5%	-2.9	-6	1
CCC(C)NC(=O)CSC1=Nc2ccccc2C2=NC(CC(=O)NCc3ccc(F)cc3)C(=O)N12 (centres undefined)	1.9	-10	0.8	u	1.2	1	x
Cc1cc(SCc2c(F)cccc2Cl)nc(=O)[nH]1	5.6	5	0.1	x	2.7	-16	35
Cc1ccc(S(=O)(=O)NCc2ccccn2)c(C)c1	-4.1	6	1.6	u	-4.4	7	-9
CCC(=O)c1cc2c(cc1NC(=O)C(C)C)OCCO2	7.8	-11	0.5	5%	-5.1	8	2
N#C/C(=C1/C(=O)Nc2ccc(Br)cc21)c1ccccn1	9.3	-188	4.4	-7%	8.2	-18	-12
COc1ccccc1CNS(=O)(=O)c1ccc(-n2cccn2)cc1	-6.1	-30	-1.0	-5%	-2.1	39	-9
CCOC(=O)c1ccc(N=C2SC(C(=O)NCCc3ccccc3)CC(=O)N2C)cc1 (centres undefined)	0.2	3	-2.9	-3%	x	9	x

Reprinted at random: 2 records from the list
SMILES	RanGTP-Imp inh	Beta2AR agonist	HNF4A DNA FP	Vif A3G	LANA-H2A inh	Calb FLC	ALR inh
O=C(CCS(=O)(=O)c1cccs1)Nc1ccc(C(=O)NCc2ccc(F)cc2)cc1	2.7	-4	0.5	-10%	1.2	-13	0
COc1ccc(C2CC(c3ccccc3)=NN2C(=O)CN2N=NC3C(=O)N(c4cccc(F)c4)C(=O)C32)cc1 (centres undefined)	1.2	-7	0.9	x	0.5	7	-2

Continuation:
SMILES	RanGTP-Imp inh	Beta2AR agonist	HNF4A DNA FP	Vif A3G	LANA-H2A inh	Calb FLC	ALR inh
NC(=O)c1ccccc1NC(=O)CSc1nc2c(c(=O)[nH]1)CCCC2	2.7	-7	-0.4	4%	2.0	15	1
Cc1cc(Cl)c(S(=O)(=O)N/N=C/c2ccc3c(c2)OCO3)c(Cl)c1	-1.8	2	-1.2	u	-4.5	21	-4
O=C(N/N=C\c1c(O)ccc2ccccc12)c1ccc(O)cc1	9.1	15	1.1	x	2.4	-1	-10
COc1ccc(S(=O)(=O)Nc2cc3c4c(c2)CCC(=O)N4CCC3)cc1C	1.5	5	2.8	-1%	-0.7	-8	x
O=C(NCC(=O)N(c1cccnc1)C(C(=O)NC1CCCC1)c1cccs1)c1cccs1 (centres undefined)	-1.0	11	0.3	12%	1.6	4	-4
COc1cc(O)c2c(=O)c3c(OC)c(O)ccc3oc2c1	3.7	1	2.0	7%	7.3	11	65
CC(C)CNC(=O)Nc1ccccc1F	-3.9	-6	4.8	3%	1.7	2	-1
Nc1nc2n(n1)C(c1ccccc1)CC(c1ccc(F)cc1)N2 (centres undefined)	-0.5	0	1.7	6%	5.0	-1	-7
COCOc1cc(O)c(C(=O)/C=C/c2ccccc2)c(OCOC)c1	3.9	15	5.6	x	-2.0	2	u
O=C(/C=C/c1cccs1)Nc1ccncc1	-1.5	-10	-3.6	10%	-3.1	-13	u
COc1ccc(C(CNC(=O)Cn2[nH]c(=O)c3ccccc3c2=O)N2CCCC2)cc1 (centres undefined)	-2.7	4	0.6	2%	-1.7	8	5
CC1CCCCN1C(=O)C1CC(c2ccc(F)cc2)=NO1 (centres undefined)	1.2	-3	-4.7	-1%	5.4	-8	39
CS(=O)(=O)N(CC(=O)N1CCCC1)c1cccc(F)c1	7.6	-5	4.3	x	2.9	-3	x
COC(=O)c1ccc(CNC(=O)COC(=O)c2ccccc2-c2ccccc2)cc1	-1.3	-5	-2.1	3%	0.3	0	-4
Cc1ccc2nc(SCC(=O)Nc3cc(C(C)(C)C)nn3-c3ccccc3)[nH]c2c1	-15	-10	-0.9	0%	-2.4	-8	-2
COc1ccc(N2CCN(C(=O)C(=O)c3c(C)[nH]c4ccccc34)CC2)cc1	-2.5	-7	1.9	x	-2.6	16	37

Limited to Beta2AR agonist, for some of the entries so far:
| smiles | Beta2AR agonist |
| --- | --- |
| CC(C)CNC(=O)Nc1ccccc1F | -6 |
| Nc1nc2n(n1)C(c1ccccc1)CC(c1ccc(F)cc1)N2 (centres undefined) | 0 |
| COCOc1cc(O)c(C(=O)/C=C/c2ccccc2)c(OCOC)c1 | 15 |
| O=C(/C=C/c1cccs1)Nc1ccncc1 | -10 |
| COc1ccc(C(CNC(=O)Cn2[nH]c(=O)c3ccccc3c2=O)N2CCCC2)cc1 (centres undefined) | 4 |
